From PubChem BioAssay
gsp agonist: activates gsp, the McCune-Albright syndrome mutation. 0.13% of 340,000 active. gsp mutant cells, cAMP HTRF, 30 min; control for the full effect not named in the record. AID 624287. Potency, µM (doses to about 76.9 µM), for inactives: at the top dose activation (cAMP increase), usual class: activators; active = well fitted activation curve with a large enough effect; inconclusive = small, poorly fitted or top-dose-only effect, or another doubt; inactive = no such curve, though single readings can be large or run the other way; cell line not stated here;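 further: phosphodiesterase inhibitor Ro 20-1724 added with compounds to block cAMP breakdown; potency means the concentration at half of the fitted maximal effect; nearly all actives have a fitted effect of over 60% in size; about a fifth of the inactives were tested at one dose only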
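Cells in DMEM/10% FBS with G418 were pretreated with compounds in DMSO plus […] (300 uM stock) for 30 min at 37C. cAMP was measured by HTRF (cAMP-d2 plus anti-cAMP antibody-K) after 30 min at room temperature.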
Sfp inh: inhibitors of Bacillus subtilis Sfp phosphopantetheinyl transferase; Biochemical Sfp PPTase activity, qHTS; Q9F4F7; Potency, µM, inactives show max response, negative = inhibition, usual class: inhibitors; 3.5% of 310,000 active; active means well fitted inhibition curve with a large enough effect; inconclusive means small, poorly fitted or top-dose-only effect, or another doubt; inactive means no such curve, though single readings can be large or run the other way;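 further: the enzyme is Sfp with the accession as filed and its product quenches rhodamine fluorescence; potency means the concentration at half of the fitted maximal effect; 0% = enzyme reaction without inhibitor and -100% = no enzyme wells; top concentration of the series not given in the record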
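Fluorescence-quenching assay with 15 nM Sfp, 5 uM rhodamine-CoA and 12.5 uM BHQ-2-labelled ybbR peptide in pH 7.6 Hepes/MgCl2 buffer. Enzyme was pre-incubated with compound for 15 min at room temperature. Rate was taken from the 30-min fluorescence change (525/598 nm).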
Menin MLL FP FL: displaces fluorescein MLL peptide from human menin. Fluorescence polarization, fluorescein-MLL peptide displacement from menin. FP activity change, % at 61.4 µM. 290,000 tested, under 10 active. AID 1766; inconclusive = falling polarisation curve, or a change in total fluorescence; inactive = total fluorescence flat and polarisation flat or rising; no compound was filed as active; the % refers to the polarisation; negative = inhibition;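 further: % of control where 0% means no effect; inhibitors lower the polarisation; unlabelled MLL peptide was the positive control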
ClpP mod: qHTS Assay for Activators of ClpP. ATP-dependent Clp protease proteolytic subunit (Bacillus subtilis (strain 168)), P80244. purified B. subtilis ClpP, FRET peptide cleavage, 20 min. Potency, µM (doses to about 57.5 µM), without a hit: at the top dose activity change, negative = active. 1.9% of 340,000 active. AID 651965, 2013; active = well fitted falling curve with a large enough effect; inconclusive = small, poorly fitted or top-dose-only effect; inactive = no such curve, though single readings can be large or run the other way; further: potency means the concentration at half of the fitted maximal effect; the source files actives as falling curves though it sought activators and does not explain the sign; nearly all actives have a fitted effect of over 65% in size; many hits overshoot -100%
Target sequence (P80244 whole entry, looked up): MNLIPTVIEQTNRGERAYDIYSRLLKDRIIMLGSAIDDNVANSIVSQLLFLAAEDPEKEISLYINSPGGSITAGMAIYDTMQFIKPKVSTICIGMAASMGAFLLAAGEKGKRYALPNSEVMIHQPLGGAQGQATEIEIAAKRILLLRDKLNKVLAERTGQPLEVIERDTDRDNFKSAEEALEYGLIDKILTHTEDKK
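FRET quenching reversal measured ClpP activation: 10 microg/mL B. subtilis ClpP at pH 8 with the FRET-FV decapeptide, read at 430 nm after 320 nm excitation. The 20-min minus 0-min signal was scaled between DMSO/no-enzyme wells and ADEP (5.8 microM final).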
TRPV1 PAM: enhances activation of the human vanilloid receptor TRPV1. Q8NER1. TRPV1-expressing cells, Fluo-8 calcium influx, capsaicin EC20 potentiation; host cell line not named in the record; control for the full effect not named in the record. potentiation, % at 8.33 µM. 0.02% of 320,000 active; active means potentiation above 80%; inconclusive means 30% to 80%; inactive means below 30%; further: 0% is about no effect
Target sequence (Q8NER1 whole entry, looked up): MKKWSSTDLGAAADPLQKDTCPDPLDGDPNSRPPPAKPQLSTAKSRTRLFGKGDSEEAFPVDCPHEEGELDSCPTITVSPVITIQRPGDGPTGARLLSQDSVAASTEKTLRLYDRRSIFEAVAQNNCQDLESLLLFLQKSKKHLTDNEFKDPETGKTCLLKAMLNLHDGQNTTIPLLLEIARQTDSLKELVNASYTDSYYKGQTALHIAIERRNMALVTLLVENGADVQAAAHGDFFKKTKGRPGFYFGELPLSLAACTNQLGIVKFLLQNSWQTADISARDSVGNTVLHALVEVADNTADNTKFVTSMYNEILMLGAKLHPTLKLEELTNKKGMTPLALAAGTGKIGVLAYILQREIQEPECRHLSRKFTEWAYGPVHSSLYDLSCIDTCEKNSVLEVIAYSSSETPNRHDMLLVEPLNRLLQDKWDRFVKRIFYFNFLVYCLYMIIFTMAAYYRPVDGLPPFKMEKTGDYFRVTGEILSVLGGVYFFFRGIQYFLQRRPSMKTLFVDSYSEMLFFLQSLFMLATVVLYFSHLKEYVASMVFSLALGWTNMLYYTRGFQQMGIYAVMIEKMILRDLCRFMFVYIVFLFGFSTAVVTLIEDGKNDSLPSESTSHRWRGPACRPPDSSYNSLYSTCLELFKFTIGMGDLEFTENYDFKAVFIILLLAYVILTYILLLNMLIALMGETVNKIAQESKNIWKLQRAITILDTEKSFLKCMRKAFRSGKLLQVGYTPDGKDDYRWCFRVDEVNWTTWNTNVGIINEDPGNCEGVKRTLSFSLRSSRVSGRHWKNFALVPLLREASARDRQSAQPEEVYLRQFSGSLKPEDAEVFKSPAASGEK
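Cells expressing TRPV1 were dye-loaded with Fluo-8 and read kinetically: 10 s baseline, 3 min after compound (agonist portion), then 2 min after EC20 capsaicin (allosteric enhancer portion). Calcium-bound dye fluorescence at 480/520 nm.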
CtBP-E1A inh: blocks the CtBP interaction with E1A | AlphaScreen GST-E1A/His-CtBP binding, 1536-well; active compounds read low; control for the full effect not named in the record | activity change, % (concentration not given with the values) | 0.49% of 340,000 active | AID 651724; in the data active means activity change below about -65%; inconclusive means about -30% to -65%; inactive means above about -30%; further: on the % scale 0 is the no-effect control and ±100 the full control effect
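Steps: dispense buffer (Tris pH 8.0, NaCl 300 mM, TCEP 1 mM, BSA, Tween 20); add 5X protein mix (GST-E1A, His-CtBP, 125 nM each); pin 23 nL compound; 2 h at 37 °C, dark; add 5X beads (50 ug/mL); 1 h; read.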
gsp antag: gsp mutant antagonism | gsp-mutant cells, cAMP HTRF, 30 min; control for the full effect not named in the record | Potency, µM (doses to about 76.9 µM), for the others: top-dose activity change, negative = inhibition, actives largely listed as inhibitors | 0.4% of 340,000 active | AID 624288; active = falling curve of any shape with a large fitted effect; inconclusive = falling curve, mostly with a smaller effect; inactive = flat or rising curve; cell line not stated here;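 further: intracellular cAMP measured with PDE inhibitor Ro 20-1724 present during compound exposure; potency means the concentration at half of the fitted maximal effect; on the % scale 0 is the no-effect control and ±100 the full control effect; nearly all actives have a fitted effect of over 65% in size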
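HTRF cAMP read-out (cAMP-d2 plus anti-cAMP antibody-K in lysis buffer, 30 min RT). Before lysis, cells are exposed to compounds with […] for 30 min at 37C in DPBS containing Ca/Mg, BSA and Tween 20.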
The depositor's hits bear a star; ? = inconclusive; nt = no result given; & = joins results of further samples; [ ] = another dose, or the depositor's remark.

Second line of a record – gsp agonist	Sfp inh	Menin MLL FP FL	ClpP mod	TRPV1 PAM	CtBP-E1A inh	gsp antag
[1] CCC1=C(OC(=O)N(CC)CC)N2C(=O)OC(=NCc3ccccc3)[C@]2(C)[C@H]2C1=CC[C@H]1C(=O)N(CC(=O)OC)C(=O)[C@H]12
    -47%[inhibitor]	11%&-2%	-9.0&1.2	-4.7%	-35	nt	1%
[2] C/C(=N/NC(=O)CNC(=O)c1ccncc1)c1ccco1
    -20%[15.4 µM]	8%	4.7	nt	8	-3	7%
[3] COc1cc(OC)c(-n2c(C)cc(C=O)c2C)cc1Cl
    0%	15%	5.3	-0.4%	-3	6	-16%
[4] CC1CCC2(CC1)OCC1(CCC3(COC4(CCC(C)CC4)OC3)C1=O)CO2 (configuration not stated)
    23%[15.4 µM]	6%	-5.0	nt	-4	-11	11%
[5] CCC(C)c1c(N)n(S(=O)(=O)c2ccc(C)cc2)oc1=O (configuration not stated)
    7%	nt	nt	nt	nt	?	3%
[6] COc1cc(C(=O)NCc2ccccc2)cc(Br)c1OC
    -6%	6%	-1.0	nt	10	8	2%
[7] CCC1Oc2ccc(C)cc2N(CC(=O)NCCCN2CCCCC2CC)C1=O (configuration not stated)
    -15%	12%	-2.9	1.8%	-39	6	10%
[8] c1ccc(OCc2nc(-c3cccs3)no2)cc1
    -6%	3%	6.1	-1.1%	-2	28	-6%
[9] O=C(NCCN1CCOCC1)C1CCN(S(=O)(=O)c2ccccc2)CC1
    11%	nt	nt	2.0%	nt	1	nt
[10] O=C(CSc1nnc(-c2cccs2)n1-c1ccccc1)c1ccc2c(c1)OCCO2
    41%	-7%	-1.8	-0.8%	-3	2	21%
[11] COc1ccc(OC)c(S(=O)(=O)NC2CCN(Cc3ccccc3)CC2)c1
    -10%	4%	3.2	-1.8%	1	8	2%
[12] COc1ccccc1CNC(=O)CCS(=O)(=O)c1ccc(Cl)cc1
    6%	nt	nt	-2.9%	-27	-23	7%
[13] COc1cccc(-n2c(SCC(=O)N3CCCCC3)nc3c([nH]c4ccccc43)c2=O)c1
    27%	0%	4.8	-6.8%&-8.6%	4	3	3%
[14] CCOc1ccc(C(=O)NCC(=O)NNC(=O)c2ccco2)cc1OCC
    -23%	nt	nt	-4.2%	nt	5	0%
[15] O=C(Nc1cccc(S(=O)(=O)N2CCOCC2)c1)C1COc2ccccc2O1 (configuration not stated)
    -5%[15.4 µM]	nt	nt	0.3%	-22	-3	8%
[16] Cc1c(NC(=O)C(C#N)=C2CCCCC2)c(=O)n(-c2ccccc2)n1C
    23%	11%	-0.1	0.9%	-9	8	-3%[15.4 µM]
[17] CC(C)[C@H](N)c1cn([C@@H](CC(N)=O)C(=O)N2CCNCC2)nn1
    0%	nt	nt	2.1%	5	0	11%
[18] Cc1ccc(S(=O)(=O)n2cc(-c3ccccc3)c(N)n2)cc1
    2%	6%	1.9	0.7%	-1	32	-3%
[19] Cc1ccc(C)c(-c2cc(C(=O)NNC(=S)NCC(C)C)c3ccccc3n2)c1
    -36%[inhibitor]	7%	1.8	16%	4	-4	?
[20] CC(C)(C)CC(C)(C)NC(=O)CSCC(=O)Nc1ccc2ccccc2c1
    -11%	-8%	-1.1	-2.0%	10	-18	-25%

Some of these compounds in order of molar mass, lowest first.
Second line of a record – gsp agonist	Sfp inh	Menin MLL FP FL	ClpP mod	TRPV1 PAM	CtBP-E1A inh	gsp antag
[5] CCC(C)c1c(N)n(S(=O)(=O)c2ccc(C)cc2)oc1=O (configuration not stated)
    7%	nt	nt	nt	nt	?	3%
[6] COc1cc(C(=O)NCc2ccccc2)cc(Br)c1OC
    -6%	6%	-1.0	nt	10	8	2%
[14] CCOc1ccc(C(=O)NCC(=O)NNC(=O)c2ccco2)cc1OCC
    -23%	nt	nt	-4.2%	nt	5	0%
[11] COc1ccc(OC)c(S(=O)(=O)NC2CCN(Cc3ccccc3)CC2)c1
    -10%	4%	3.2	-1.8%	1	8	2%

Continued.
Second line of a record – gsp agonist	Sfp inh	Menin MLL FP FL	ClpP mod	TRPV1 PAM	CtBP-E1A inh	gsp antag
[21] NC(=O)C1(N2CCCCC2)CCN(C(=O)c2ccc(-n3cnnn3)cc2)CC1
    -24%	-1%	0.5	-1.1%	-7	1	9%
[22] CC(=O)N/C(=C\c1ccccc1)C(=O)OCC(=O)NC1CCS(=O)(=O)C1 (configuration not stated)
    -26%	nt	nt	-1.7%	3	2	13%
[23] O=C(NCc1cccs1)c1nc2c(nnn2Cc2ccc(F)cc2)c(=O)[nH]1
    -3%	8%	-0.6	-1.0%	7	6	?
[24] CCCCNC(=O)CS(=O)Cc1nc(-c2cccc(Cl)c2)oc1C (configuration not stated)
    -32%[inhibitor]	-5%	2.5	-12%	-9	1	-1%
[25] CCOC(=O)Nc1ccc2c(c1)N(C(=O)CCN1CCN(CCO)CC1)c1ccccc1CC2
    -10%	-4%	-3.5	0.6%	2	10	3%
[26] COC(=O)c1c(-c2cccnc2)csc1NC(=O)c1ccc2c(c1)OCO2
    16%[15.4 µM]	?	20	?	5	-5	?
[27] CC(Oc1ccc(Cl)cc1)C(=O)OCC(=O)Nc1ncc(Cl)cc1Cl (configuration not stated)
    9%	0%	0.6	0.8%	-7	3	5%
[28] O=c1c2ccccc2nc2c3ccccc3c(NCCO)nn12
    -11%	-6%	0.3	4.5%	-1	-71*	3%
[29] CC(=O)C1=C(O)C(=O)N(Cc2cccnc2)C1c1ccc(Cl)cc1 (configuration not stated)
    9%	-8%	3.2	-13%	0	-10	-1%
[30] CN[C@H]1C[C@H]2c3[nH]c4ccc(-c5ccc(OC)cc5)cc4c3CCN2C(=O)[C@H]1[C@H](C)O
    ?	nt	nt	4.1%	nt	-18	nt
[31] CCCN1Cc2cccc(C(=O)Nc3cc(OC)cc(OC)c3)c2C1=O
    -15%	5%	2.2	-8.8%	-10	-24	-8%
[32] CC(NC(=S)Nc1ccc([N+](=O)[O-])cc1)c1ccncc1 (configuration not stated)
    -31%[inhibitor]	18%	1.1	nt	23	-5	-9%
[33] Cc1ccc(-c2noc(CSc3nnnn3-c3ccccc3)n2)cc1
    -39%[inhibitor]	14%	?	1.2%	-4	15	-18%
[34] O=C(c1cccs1)N1CCN(Cc2ccc3c(c2)OCO3)CC1
    ?	13%	0.0	?	-9	2	5%
[35] CC1CCCCC1NC(=O)CCCc1nc2ccccc2c(=O)[nH]1 (configuration not stated)
    ?	13%	5.4	-5.0%	3	2	-2%
[36] O=C(OCc1cccc([N+](=O)[O-])c1)c1ccc[nH]c1=O
    0%	11%	-3.4	nt	-3	-1	-4%
[37] C[C@@H]1CCCCO[C@@H](CN(C)S(=O)(=O)c2ccccc2)[C@@H](C)CN([C@H](C)CO)C(=O)c2cc(NS(=O)(=O)c3ccc(F)cc3)ccc2O1
    7%	nt	nt	0.5%	nt	23	nt
[38] O=C1N/C(=C/c2cccs2)C(=O)N1Cc1ccc(Br)cc1
    -8%[15.4 µM]	-4%	-2.2	nt	?	-3	16%
[39] Cc1nc2ccccc2c(=O)n1/N=C/c1ccc2ccccc2c1O
    ?	3%	?	8.1%	-2	-8	?
[40] COc1ccc(Br)cc1C1Nc2cccc3cccc(c23)N1
    -20%	-16%	-5.5	-1.8%	-9	-6	-7%

(cont.)
Second line of a record – gsp agonist	Sfp inh	Menin MLL FP FL	ClpP mod	TRPV1 PAM	CtBP-E1A inh	gsp antag
[41] CCC(NC(=O)CCc1ccccc1)c1ccccc1 (configuration not stated)
    39%[15.4 µM]	11%	1.2	nt	-11	19	13%
[42] Cn1ncc(N=Cc2ccccc2O)c1C(=O)Nc1ccccc1
    -1%	-9%	-0.8	1.0%	0	-1	-4%
[43] O=C(Nc1nc(-c2cccs2)cs1)c1ccc(S(=O)(=O)N2CCCC2)cc1
    1%	18%	1.9	-16%	21	-7	?
[44] CCc1cccc(C)c1NC(=O)CCNC(=O)c1cccc(C)c1
    11%[15.4 µM]	11%	4.4	nt	2	0	2%
[45] CCn1c(CNC(=O)c2cccc(C)c2)nc2ccccc21
    -20%	5%	1.5	0.5%	9	13	4%
[46] N=c1c2c(-c3ccccc3)c(-c3ccccc3)n(Cc3ccco3)c2ncn1Cc1ccccc1
    -26%	22µM*	-1.1	-2.8%	-12	-3	16%
[47] COc1cc(Cl)c(C)cc1NC(=O)CSc1nnc(-c2ccccn2)n1Cc1ccco1
    7%	?	-1.5	-1.7%	26	2	2%
[48] CN(CC(=O)Nc1ccccc1Cl)C(=O)COC(=O)/C=C/c1cccs1
    1%	nt	nt	1.7%	-4	3	13%
[49] COC(=O)c1cc(C(=O)OCC(=O)Nc2ccccc2OC(F)F)cc([N+](=O)[O-])c1
    0%[15.4 µM]	-7%	3.4	28µM*	1	0	-5%
[50] COc1ccc2nc(NC(=O)c3ccc(NC(=O)C4CCCO4)cc3)sc2c1 (configuration not stated)
    20%[15.4 µM]	8%	3.1	nt	-10	2	?
[51] CCc1nnc(NC(=O)CSc2nc3[nH]c(=O)cc(O)c3s2)s1
    6%	nt	nt	-0.2%	0	-8	0%
[52] COc1ccccc1N1CCN(C(c2cccs2)C(C)NC(=O)c2ccncc2)CC1 (configuration not stated)
    22%	14%	4.5	-5.4%	?	nt	3%
[53] Cc1ccc(-c2cc(C(=O)OC3CCOC3=O)c3ccccc3n2)c(C)c1 (configuration not stated)
    -7%[15.4 µM]	-10%	0.4	0.4%	-1	8	-15%
[54] CCC1CCCCN1C(=O)COC(=O)c1ccc(S(=O)(=O)N2CCOCC2)cc1 (configuration not stated)
    -51%[inhibitor]	15%	-0.9	?	-12	2	2%
[55] COC(=O)c1ccc(-c2nc3cc(Cl)c(N)cc3s2)cc1
    ?	-3%	-1.3	1.0%	-4	8	22%
[56] Cc1ccc(S(=O)(=O)Nc2ccc(S(=O)(=O)N3CCCC3)cc2)cc1
    12%	-17%	-1.4	-2.0%	-10	-4	-6%
[57] CC(C)Oc1cccc(-c2cc(C(=O)N3CCN(c4ncccn4)CC3)c3ccccc3n2)c1
    nt	?	1.0	nt	8	nt	nt
